# MLL AF4-AF9 inh = inhibitors of AF4 peptide binding to AF9, primary screen, biochemical, AlphaScreen, biotin-AF4 peptide, FLAG-AF9, single point. 350,000 tested, 0.47% active. inhibition, % at 10 µM;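 active = every replicate reaching a set inhibition limit, whatever the replicate mean, cut at about 25% in these data; inconclusive = mean inhibition reaches that limit but some replicates miss it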;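 also: 0% = plate neutral control median and 100% = total signal loss; the record names both 10 and 1 µM as test concentration; the first replicate is given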
# Ecoli growth = E. coli growth inhibition, primary screen, OD600; 330,000 tested, 0.21% active; OD600 absorbance (test concentration not listed); Escherichia coli growth, 23 h; active compounds read low;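 active = OD600 absorbance below the run mean of sample wells minus 3.6 SD, in any replicate, cut at about 0.56 in these data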;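 also: stock transfer was 300 nL into about 60 µL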
# ALR H2O2 inh = inhibitors of human ALR sulfhydryl oxidase, primary screen, biochemical, H2O2 detection, HRP-luminol luminescence, single point | purified ALR, DTT oxidation | inhibition, % (no concentration beside the values) | 290,000 tested, 3.8% active;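 active = mean and each replicate at 75% or more; inconclusive = only one of the two met; inactive = neither met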;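 also: stock transfer was 7.5 nL into about 7.5 µL; 0% = neutral wells and 100% = wells with inactivated enzyme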
# Target sequence (P55789 whole entry, looked up): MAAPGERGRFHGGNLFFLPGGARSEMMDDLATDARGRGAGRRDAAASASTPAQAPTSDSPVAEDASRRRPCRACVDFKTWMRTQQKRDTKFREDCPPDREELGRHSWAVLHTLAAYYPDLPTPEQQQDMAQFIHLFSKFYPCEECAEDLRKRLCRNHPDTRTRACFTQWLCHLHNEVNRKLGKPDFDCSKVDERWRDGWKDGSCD
# Vif A3G = inhibitors of Vif binding to APOBEC3G peptide, primary screen, biochemical, TR-FRET, GST-Vif 1-94, biotin-A3G peptide, dose response retest (AID 1117319); Virion infectivity factor (Human immunodeficiency virus type 1 group M subtype B (isolate …; TR-FRET GST-Vif / biotin-A3G peptide binding; higher % means a stronger effect; test concentration not given here; strong numbers were not always called active; one-dose inhibition, %; IC50 in µM for titrated hits; 260,000 tested, 0.57% active;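 active = above the screen mean plus three standard deviations and confirmed in dose response; inconclusive = results disagree or hit not tested in dose response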;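 also: Vif residues 1-94 fused to GST binding biotinylated APOBEC3G peptide 110-148; 0% = full assay without inhibitor and 100% = GST in place of GST-Vif; retest series ran down from 100 µM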
# rRNA inh HTS = reduced GFP signal of wild-type E. coli, primary screen, bacterial rRNA inhibitor project, GFP/RFP fluorescence, OD600, single point | E. coli WT GFP vs humanized-ribosome RFP mutants, 24 h; active compounds read low; DMSO median 0, no signal -100 | GFP signal change (wild-type ribosome), % (test concentration not listed) | 350,000 tested, 1.6% active | AID 720706, 2013;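 active = significant combined selectivity score with lowered wild-type GFP, culture density cut under 30%, mutant RFP and density less affected; inactive = any of these conditions unmet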; also: one replicate is shown; some compounds called inactive have numbers as strong as hits
# HNF4A DNA FP = change in binding of human HNF4A to DNA, primary screen, biochemical, fluorescence polarization, FITC-DNA | 1 h | 360,000 tested, 0.3% active | activity change, % at 10 µM | AID 1224865, 2016 | Hepatocyte nuclear factor 4-alpha (Homo sapiens), P41235; in the data active = activity change above about 30%, passing the limit was not always enough;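 also: controls were the assay level and a saturating level of protein; the project sought stronger binding though the title names inhibitors; some compounds called inactive have numbers as strong as hits; positive values seem to mean higher polarization but the record does not say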
# Target sequence (P41235 whole entry, looked up): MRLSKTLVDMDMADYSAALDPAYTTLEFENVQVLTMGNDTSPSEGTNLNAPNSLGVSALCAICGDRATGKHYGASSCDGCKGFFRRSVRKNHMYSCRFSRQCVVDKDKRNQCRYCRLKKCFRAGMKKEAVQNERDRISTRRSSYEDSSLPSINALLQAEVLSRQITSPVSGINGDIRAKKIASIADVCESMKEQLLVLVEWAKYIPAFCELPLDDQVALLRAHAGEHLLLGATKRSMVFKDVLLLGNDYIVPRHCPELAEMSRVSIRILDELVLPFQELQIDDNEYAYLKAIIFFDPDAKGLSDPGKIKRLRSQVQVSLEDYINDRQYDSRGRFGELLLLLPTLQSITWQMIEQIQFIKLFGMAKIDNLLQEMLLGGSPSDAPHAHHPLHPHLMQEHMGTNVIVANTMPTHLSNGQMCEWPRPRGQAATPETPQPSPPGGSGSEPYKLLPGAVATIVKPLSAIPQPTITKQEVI
# FGF22 binding = binders of human FGF22 protein, primary screen, FGF22 synaptogenesis inhibitor project, biophysical, thermal shift, single point. Fibroblast growth factor 22 (Homo sapiens), Q9HCT0. recombinant FGF22 thermal shift, SYPRO orange fluorescence; percent of sucrose octasulfate shift, DMSO zero. calls only at 9.99 µM. 340,000 tested, 1.5% active. AID 651658, 2012;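 active = melting point raised past a set limit in the mean and every replicate; inconclusive = no clear call; three in four hits are not shown here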
# Target sequence (Q9HCT0 whole entry, looked up): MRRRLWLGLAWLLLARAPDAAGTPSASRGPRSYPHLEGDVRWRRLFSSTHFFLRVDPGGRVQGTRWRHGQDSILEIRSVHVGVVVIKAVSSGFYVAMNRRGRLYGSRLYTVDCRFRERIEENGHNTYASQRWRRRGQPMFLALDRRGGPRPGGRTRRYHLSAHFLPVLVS
# rRNA inh HTS OD600 = second read-out of rRNA inh HTS, no call of its own (marks repeat the call); OD600 change, %; measured here: OD600 growth;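 optical density of the mix in the first replicate; 0 = DMSO median and -100 = no signal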
# rRNA inh HTS RFP = recorded beside rRNA inh HTS, whose call it bears; RFP signal change, %; measured here: RFP humanized mutant strains;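 first replicate; 0 = DMSO median and -100 = no signal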
# * marks the source's active call; other numbers are inactive results; i = inactive; ? = inconclusive; . = not tested or not shown; + = active, no number.
SMILES,MLL AF4-AF9 inh,Ecoli growth,ALR H2O2 inh,Vif A3G,rRNA inh HTS,rRNA inh HTS OD600,rRNA inh HTS RFP,HNF4A DNA FP,FGF22 binding
CN(C)CCOc1cc(Cl)cc(Cl)c1,-1.1,0.69,0,-2%,5,12,-0.9,-1.4,i
C[C@H](CO)N1C[C@H](C)[C@@H](CN(C)Cc2ccc(C(F)(F)F)cc2)Oc2c(NC(=O)c3ccc(-c4nccs4)cc3)cccc2C1=O,1.4,.,.,.,0,12,-1.7,.,i
COc1ccc2cc(/C=N/NC(=O)CN(c3ccccc3C)S(=O)(=O)c3ccccc3)c(Cl)nc2c1,2.2,.,-6,7%,15,17,1.7,15,i
CN(C(=O)COC(=O)c1cccc(NS(=O)(=O)c2ccc(F)c(F)c2)c1)C1CCS(=O)(=O)C1 (stereo not drawn),0.2,0.72,-7,.,10,0,-2.0,-3.0,i
O=C(O)C[C@@H]1C[C@@H]2c3cc(NC(=O)CC4CC4)ccc3O[C@@H]2[C@@H](CO)O1,8.2,.,.,.,6,9,-0.3,.,i
COC(=O)[C@@H]1CCCN1Cc1nc(Cc2ccc(OC)c(OC)c2)no1,-1.3,0.7,-1,.,6,4,0.8,5.0,.
Cn1ccc2c([N+](=O)[O-])cccc2c1=O,-7.5,0.69,-11,-2%,-1,2,-2.4,0.2,i
CCS(=O)(=O)Nc1ccc2[nH]c(=O)[nH]c2c1,-0.6,.,30,1%,10,10,0.7,1.9,i
O=[N+]([O-])c1ccc(O)c(NC(=S)Nc2ccccc2)c1,.,0.67,98*,?,.,.,.,2.9,.
CCOC(=O)c1c(-c2ccccc2)csc1NC(=O)c1ccc(S(=O)(=O)N2CC(C)OC(C)C2)cc1 (stereo not drawn),.,0.71,-5,-2%,.,.,.,-0.2,.

# Reprinted at random: 2 compounds from above.
SMILES,MLL AF4-AF9 inh,Ecoli growth,ALR H2O2 inh,Vif A3G,rRNA inh HTS,rRNA inh HTS OD600,rRNA inh HTS RFP,HNF4A DNA FP,FGF22 binding
CCOC(=O)c1c(-c2ccccc2)csc1NC(=O)c1ccc(S(=O)(=O)N2CC(C)OC(C)C2)cc1 (stereo not drawn),.,0.71,-5,-2%,.,.,.,-0.2,.
CN(C(=O)COC(=O)c1cccc(NS(=O)(=O)c2ccc(F)c(F)c2)c1)C1CCS(=O)(=O)C1 (stereo not drawn),0.2,0.72,-7,.,10,0,-2.0,-3.0,i

# Later entries.
SMILES,MLL AF4-AF9 inh,Ecoli growth,ALR H2O2 inh,Vif A3G,rRNA inh HTS,rRNA inh HTS OD600,rRNA inh HTS RFP,HNF4A DNA FP,FGF22 binding
Cc1ccc(S(=O)(=O)N2CCOCC2)s1,-1.2,0.69,25,-1%,4,4,-3.1,3.1,i
COc1ccc(N2CCN(c3ccc4nnc(CCC(=O)Nc5ccc(C)cc5)n4n3)CC2)cc1,5.3,0.75,92*,.,3,8,-6.2,2.4,i
CS(=O)(=O)N1CCCCN2[C@H](CO)[C@H](c3ccc(C#Cc4ccccn4)cc3)[C@@H]2C1,-6.4,.,.,.,4,1,-1.4,.,+
O=C(c1c(F)cccc1F)N(Cc1cccs1)C1CCCC1,0.6,0.69,.,13%,-47,-53,-17,7.5,i
O=C(Cn1c(NCCCCl)nc2ccccc21)c1ccccc1,.,0.62,47,.,18,11,-6.5,-1.5,i
CCOC(=O)N1CCN(c2c(N3CCc4ccccc4C3)c(=O)c2=O)CC1,-2.9,0.75,1,23%,2,1,-0.9,0.8,i
O=c1ccc(-c2ccccc2)nn1Cc1ccc(F)cc1Cl,2.4,0.67,-1,-3%,-30,-58,17,-3.1,i
Cc1ccc(OC(=O)c2ccccc2P(=O)(O)O)cc1,1.2,0.68,-6,2%,10,5,-6.1,-4.5,i
C[C@@H]1CCCCO[C@H](CN(C)C(=O)c2ccccc2)[C@H](C)CN([C@H](C)CO)C(=O)c2cc(N(C)C)ccc2O1,6.2,.,.,.,0,-1,0.4,.,i
Cc1c(C(=O)NC2CCCCC2C)oc2ccccc12 (stereo not drawn),0.7,0.7,4,.,3,0,0.9,-1.8,i

# Complete entries as entered above. Screens in order: MLL AF4-AF9 inh, Ecoli growth, ALR H2O2 inh, Vif A3G, rRNA inh HTS, rRNA inh HTS OD600, rRNA inh HTS RFP, HNF4A DNA FP, FGF22 binding
# Results for O=[N+]([O-])c1ccc(O)c(NC(=S)Nc2ccccc2)c1 → ., 0.67, 98*, ?, ., ., ., 2.9, .
# Results for COc1ccc2cc(/C=N/NC(=O)CN(c3ccccc3C)S(=O)(=O)c3ccccc3)c(Cl)nc2c1 → 2.2, ., -6, 7%, 15, 17, 1.7, 15, i

# (continued)
SMILES,MLL AF4-AF9 inh,Ecoli growth,ALR H2O2 inh,Vif A3G,rRNA inh HTS,rRNA inh HTS OD600,rRNA inh HTS RFP,HNF4A DNA FP,FGF22 binding
O=C(O)c1ccc(/C=N/NC(=S)NC2CCCCC2)cc1,1.7,.,19,18%,-6,-11,-1.0,4.3,i
CCOc1ccc(C(=O)COC(=O)CN2C(=O)NC3(CCCCC3C)C2=O)cc1 (stereo not drawn),1.6,0.64,-3,-12%,-2,-3,0.5,-2.2,i
O=C(CCC(=O)Nc1ccc(Br)cc1)N/N=C/c1ccc(F)cc1,-0.2,.,-6,-1%,6,2,-0.8,0.5,i
COc1ccc(CN2CCN(Cc3ccccc3F)CC2)c(OC)c1,3.0,0.65,-17,-7%,1,3,-2.5,-1.4,i
Cc1nn(-c2ccccc2)c(C)c1/C=N/NC(=O)CSc1nnc(SCc2ccccc2Cl)s1,.,.,-32,-2%,.,.,.,-1.2,.
C[C@@H]1CN([C@@H](C)CO)C(=O)Cc2cc(NC(=O)Nc3ccccc3)ccc2O[C@@H]1CN(C)CC1CCCCC1,4.6,.,.,.,6,-23,5.3,.,i
CCOC(=O)N1CCN(C(=O)c2ccc(S(=O)(=O)c3ccc(C)cc3)c(NC(C)=O)c2)CC1,.,0.73,4,?,.,.,.,-0.5,.
COC(=O)C[C@H]1CC[C@H]2[C@@H](COc3ccc(NS(=O)(=O)c4ccccc4F)cc3C(=O)N2C)O1,-1.9,.,.,.,1,5,-1.9,.,i
COc1ccccc1NC(=S)NC(=O)C1CC1,?,0.73,-2,-4%,5,8,-2.4,7.1,i
CN(C)C(=O)C[C@@H]1CC[C@H](NS(=O)(=O)c2ccccc2)[C@H](CO)O1,-14,.,.,.,5,12,-2.4,.,i
O=C(CC(C(=O)O)C1CCCO1)NCc1ccccc1 (stereo not drawn),.,0.75,0,-3%,.,.,.,-1.4,.
Cc1cc(Cl)ccc1OCC(=O)OCC(=O)N1CCC(C(N)=O)CC1,-0.8,0.68,2,-4%,3,10,1.1,-2.8,i
O=C(NCc1ccccc1C(F)(F)F)C1CCC(=O)N(C2CC2)C1 (stereo not drawn),-1.4,0.73,-8,.,5,3,-0.4,-0.2,i
CS(=O)(=O)N1[C@@H]2c3ccc(-c4cccc(F)c4)c(=O)n3C[C@H]1[C@H](CO)[C@H]2C(=O)N1CCOCC1,-3.2,.,.,.,1,-3,0.0,.,i
Cc1cc(-c2nnc3n2N=C(c2ccc(F)cc2)CS3)n[nH]1,-1.9,0.67,-5,15%,2,10,1.3,8.4,i
CCOC(=O)c1cc2c(c(-c3cccc(C#CCN(C)C)c3)n1)[C@@H](CCO)N(S(=O)C(C)(C)C)C2 (stereo partly drawn),-0.9,.,.,.,0,2,1.8,.,i
O=C1OCc2cc(NC(=O)C34CC5CC(CC(C5)C3)C4)ccc21,.,0.7,0,-8%,.,.,.,7.6,.
Cn1c(=O)n(C)c2cc(NC(=O)CCc3ccccc3)c(Br)cc21,2.6,0.67,-2,.,4,0,-1.4,-1.4,i
OC(c1ccccc1)c1nc(-c2cccc(C(F)(F)F)c2)cs1 (stereo not drawn),-2.9,.,.,.,-62,-82,-21,1.9,i
COc1ccc(Cl)cc1NC(=O)CSc1nc2ccsc2c(=O)n1CC1CCC(C(=O)O)CC1 (stereo not drawn),-7.5,0.7,4,.,-1,-7,-0.6,5.5,i
O=C1CC(c2ccccc2)Cc2nc3nc(C(F)(F)F)nn3cc21 (stereo not drawn),2.3,0.7,-4,1%,17,5,-1.2,-3.1,i
CCOC(=O)C1(C)C=C(Nc2cccc(OC)c2)C(=O)N1c1ccccc1 (stereo not drawn),-1.1,.,-3,.,12,0,7.0,0.8,i
CN(C)C(=O)[C@H]1[C@H](CO)[C@H]2Cn3c(ccc(/C=C/c4ccccc4)c3=O)[C@H]2N1C(=O)c1cccnc1,-3.2,.,.,.,-3,1,0.9,.,i
O=C(COC(=O)c1cccnc1Cl)Nc1ccc2c(c1)OCCO2,0.8,0.69,-4,1%,-14,-8,-2.7,0.7,i
CC(C)(C)c1cc(OS(C)(=O)=O)ccc1O,1.0,.,2,14%,-18,-18,1.3,4.5,.
COc1ccc(/C=C(\C#N)C(=O)OCC(=O)Nc2ccc(-c3nc4ccc(C)cc4s3)cc2)cc1,0.7,0.74,-7,.,10,-9,15,15,i
CC(C)C[C@@H]1COc2cc(NCCO)ccc2S(=O)(=O)N1,-3.7,.,.,.,1,21,9.1,.,i
Cc1ccc(S(=O)(=O)N(C)C)cc1NC(=O)COC(=O)/C(=C/c1ccc(F)cc1)c1cccs1,.,.,-8,-1%,.,.,.,0.0,.
Cc1cccc(N2CCN(C(=O)CNC(=O)Cc3ccccc3)CC2)c1C,1.4,0.66,.,.,-2,-41,-4.1,2.3,i
COCCC(=O)N1CCc2c([nH]c3ccccc23)C1C(C)(C)C (stereo not drawn),0.5,0.67,34,.,6,10,1.7,-2.8,i
CC(Sc1ccccc1F)C(=O)Nc1ccc2c(c1)OCCO2 (stereo not drawn),1.0,0.69,-2,.,-7,-11,-1.2,-0.2,i
CC1CCN(C(=O)c2ccc(CSc3ccc(Cl)cc3)cc2)CC1,-36,0.68,-7,?,-16,-36,-4.4,-0.4,i
CC1CC(C)CN(C(=O)COC(=O)CCCN2C(=O)c3cccc4cccc(c34)C2=O)C1 (stereo not drawn),3.0,0.71,-4,.,-17,-20,-6.0,1.9,i
C[C@H]1CN([C@@H](C)CO)C(=O)CCCn2cc(nn2)CO[C@@H]1CN(C)Cc1ccc(O)cc1,-1.0,.,.,.,-2,2,0.3,.,i
Cc1ccc(OC2CCN(C(=O)[C@H]3O[C@@H](n4ccc(=O)[nH]c4=O)[C@H](O)[C@@H]3O)CC2)cc1,-1.4,.,.,.,4,9,3.3,6.9,i
O=C(NCC(c1ccc(F)cc1)N1CCOCC1)c1cccc(Br)c1 (stereo not drawn),-0.3,0.69,-26,4%,2,-4,1.7,0.5,i
O=C(c1ccc(C(F)(F)F)cc1)N1CCN(c2ccc(N3CCOCC3)nn2)CC1,-7.3,.,-1,.,-1,12,-3.5,-3.9,i
O=C(c1cccc(-c2nnc(-c3ccccc3)o2)c1)N1CCCCC1,.,0.72,-16,-1%,.,.,.,1.5,.
CCS(=O)(=O)Nc1ccc2c(c1)C(=O)N(C)C[C@@H](OC)[C@@H](C)CN(C)[C@H](C)CO2,-1.6,.,.,.,4,3,-0.2,.,i
O=C(Cc1cccnc1)N[C@@H]1CC[C@@H](CCn2cc(Cc3ccccc3)nn2)O[C@@H]1CO,-0.7,.,.,.,-2,-9,0.4,.,i

# Bioassay records deposited in PubChem BioAssay by several laboratories.

# This is a subset (hit frequency here may not be typical).
